Methyltransferases – Primary Screen for Target Class Profiling of Small Molecule Inhibitors of Methyltransferases; calls only at 40 µM; purified enzyme, MTase-Glo SAH luminescence; hits give low values; hit rate 3.9% among 25,000; AID 1745853, 2022; active = -50% or lower on at least one of six enzymes; inconclusive = the cases between; inactive = as a rule above -30% on all six;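 note: enzymes were COMT GAMT GNMT HNMT NNMT and PNMT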
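Each enzyme was reacted with SAM and its substrate, with compounds tested once at 40 uM; SAH formed was read by MTase-Glo luminescence.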
Calls only; i = inactive; ? = inconclusive; + = active, no number. % is set by controls: 0 for no effect and ±100 for the full control effect. Not all compounds are listed; the hit share may differ from the screen's.

structure	Methyltransferases
CCNC(=O)c1noc(-c2cc(C(C)C)c(O)cc2O)c1-c1ccc(CN2CCOCC2)cc1	i
CCC1(C)CC(=O)NC1=O (stereo unspecified)	i
CCOc1ccc(CCNC(=O)CCc2nnc3n(CCc4ccccc4)c(=O)c4ccccc4n23)cc1	i
COc1ccc(CNC(=O)Cn2nc3n(CCc4ccccc4)c(=O)c4ccccc4n3c2=O)cc1	i
C=C1CCC2C(C)(C)CC(=O)CC2(C)C1CCC(C)CCO (stereo unspecified)	?
Cc1nn(C)c(C)c1S(=O)(=O)NCCc1noc(-c2cccnc2)n1	i
COc1ccc(NC(=O)CSc2nnc3n(CCC(C)C)c(=O)c4ccccc4n23)cc1OC	i
Cc1nn(CCC#N)c(C)c1[C@@H]1C=C[C@@H](NCc2ccc(C(C)C)cc2)C1	i
Cc1c(Cl)cccc1N1C(=O)c2cc3sccc3n2CC1(C)C(=O)NC1CCCCCC1 (stereo unspecified)	i
O=C(NCc1nc(-c2ncccn2)no1)C1CC2(CCNCC2)CN1 (stereo unspecified)	i
CC(C)Cn1c(=O)c2cc(F)ccc2n2c(SCC(=O)NC3CCCCC3)nnc12	i
CC1CCC(NC(=O)Cn2ccc3cc(S(=O)(=O)N4CCC(C)CC4)ccc32)CC1 (stereo unspecified)	i
CC1(C(=O)NC2CCCCCCC2)Cn2c(cc3occc32)C(=O)N1Cc1ccccc1Cl (stereo unspecified)	i
CC(C)CCNC(=O)C1(C)Cn2c(cc3ccccc32)C(=O)N1Cc1ccc(N(C)C)cc1 (stereo unspecified)	i
CCOc1ccc(-c2cc3n(n2)CC(C)(C(=O)NCCC(C)C)N(c2ccccc2CC)C3=O)cc1 (stereo unspecified)	i
CNc1nc(C(=O)N2CCC3(CCC(=O)N(CC4CCCO4)C3)CC2)cs1 (stereo unspecified)	i
CC(C)NC(=O)Cn1nc2n(C)c(=O)c3ccc(C(=O)NC4CCCC4)cc3n2c1=O	i
Cc1ccc(S(=O)(=O)Cc2noc([C@@H]3C[C@@H](O)CN3Cc3cccc(C#N)c3)n2)cc1	i
O=C1CCCCC(C(=O)N2CC=C(c3ccccc3)CC2)N1 (stereo unspecified)	i
CC/C=C/C=C/C1(C)OC(CC(CO)OC)=CC1=O (stereo unspecified)	i

An excerpt of these results, with each value named:
compound: CCOc1ccc(CCNC(=O)CCc2nnc3n(CCc4ccccc4)c(=O)c4ccccc4n23)cc1
  Methyltransferases: i
compound: COc1ccc(CNC(=O)Cn2nc3n(CCc4ccccc4)c(=O)c4ccccc4n3c2=O)cc1
  Methyltransferases: i
compound: C=C1CCC2C(C)(C)CC(=O)CC2(C)C1CCC(C)CCO (stereo unspecified)
  Methyltransferases: ?
compound: Cc1nn(C)c(C)c1S(=O)(=O)NCCc1noc(-c2cccnc2)n1
  Methyltransferases: i

Carrying on:
structure	Methyltransferases
CCC(C)NC(=O)c1cc2n(n1)CC(C)(C(=O)NC1CCCCCC1)N(C)C2=O (stereo unspecified)	i
O=C(Cn1c(=O)n2nc(-c3ccccc3)nc2c2ccccc21)N1CCN(c2ccccc2F)CC1	i
Cc1ccccc1CN1C(=O)c2ccc(-c3ccco3)n2CC1(C)C(=O)NC1CCCCCCC1 (stereo unspecified)	i
COc1ccccc1CN1C(=O)c2nc3ccccc3n2CC1(C)C(=O)NC1CCCC1 (stereo unspecified)	i
CC1=CC(=O)CC(C)(CO[C@@H]2O[C@H](CO)[C@@H](O)[C@H](O)[C@H]2O)C1(O)/C=C/C(C)=C/C(=O)O (stereo partly specified)	i
COc1ccc(CN2C(=O)c3cc4occc4n3CC2(C)C(=O)NC2CCCCCCC2)cc1 (stereo unspecified)	i
O=C(c1ccc2c(=O)nc3c(-c4ccccc4F)n[nH]n3c2c1)N1CCN(c2ccccc2)CC1	i
CC1(C(=O)NC2CCCCCCC2)Cn2c(cc3sccc32)C(=O)N1CCN1CCOCC1 (stereo unspecified)	i
Cc1ccc(NS(=O)(=O)c2cc3c(cc2F)NC(=O)CC3)cc1Cl	?
COCC1CN(C)CC12CCN(C(=O)CC1=CCCCC1)CC2 (stereo unspecified)	i
COc1ccc2c(c1)CN(C(=O)CCN1CCC(Cc3ccccc3)CC1)CCS2	i
CCc1ccccc1NC(=O)CSc1nnc2n(CCc3ccccc3)c(=O)c3ccccc3n12	i
CC(C)NC(=O)c1ccc2c(=O)n(C(C)C)c3nn(Cc4ccccc4Cl)c(=O)n3c2c1	i
C=CCc1ccc(OC(C)Cc2ccc(OC)c(OC)c2)c(OC)c1 (stereo unspecified)	i
CCCN1C(=O)c2c(C(=O)NCc3cccc(Br)c3)ncn2CC1(C)C(=O)NCCC(C)C (stereo unspecified)	i
COc1ccc2c3ccnc4ccc(=O)n(c2c1)c43	?
CCC(C)NC(=O)c1ccc2c(=O)n(C)c3nn(Cc4ccccc4F)c(=O)n3c2c1 (stereo unspecified)	i
CCNc1ncnc2sc3c(c12)CCN(Cc1ccco1)C3	?
COc1ccc(N2CCN(C(=O)CCc3nnc4n(CC(C)C)c(=O)c5ccccc5n34)CC2)cc1	i
CCCn1c(=O)c2ccc(C(=O)NC3CCCC3)cc2n2c(SCC(=O)Nc3ccc(C)cc3)nnc12	i
COc1ccccc1CNC(=O)C1(C)Cn2nc(-c3ccccc3)cc2C(=O)N1Cc1ccc(Cl)cc1 (stereo unspecified)	i
O=c1[nH]c2ccc(S(=O)(=O)N(CCO)CCO)cc2[nH]1	i
O=C(Nc1ccc(F)cc1)c1ccnc2[nH]ccc12	i
COc1cccc(-c2ccc(NC(=O)C3CCCN3Cc3cnn(C)c3)cc2)c1 (stereo unspecified)	i
COc1cccc(CNS(=O)(=O)c2ccc3c(c2)n(C)c(=O)n3C)c1	i
CN1CCN(c2ccc(-c3noc([C@@H]4CCCN4Cc4ccccc4)n3)cn2)CC1	i
N[C@@H](CCCC(=O)O)C(=O)O	i
Cc1cccc(CCNC(=O)CCc2nnc3n(CCc4ccccc4)c(=O)c4ccccc4n23)c1	i
CC1(C)C[C@H](NCc2ccc(CO)o2)[C@@]2(CCC(=O)N3CCOCC3)CC[C@](C)(O)C[C@@H]12	i
COc1cccc(CN2C(=O)c3ccc(-c4ccco4)n3CC2(C)C(=O)NC2CCCC(C)C2C)c1 (stereo unspecified)	i
Cc1ccc(Cn2c(=O)c3ccccc3n3c(CCC(=O)NCCN4CCOCC4)nnc23)cc1	i
CC1(C(=O)NC2CCCCC2)Cn2c(c(-n3cccc3)c3ccccc32)C(=O)N1Cc1ccccn1 (stereo unspecified)	?
COC(=O)c1cc2n(n1)CC(C)(C(=O)NC1CCCCC1)N(c1ccc(F)cc1)C2=O (stereo unspecified)	i
O=C1NCc2ccccc2CC12CCCN2Cc1ccc(F)cc1F (stereo unspecified)	i
C=C1CC[C@H](O)CC1=C/C=C1\CCC[C@]2(C)[C@@H]([C@H](C)/C=C/[C@H](C)C(C)C)CC[C@@H]12	i
Cc1ccc(-c2noc([C@@H]3Cc4nc[nH]c4CN3Cc3cccs3)n2)cc1	?
CN(C(=O)Cn1nc2n(C)c(=O)c3ccc(C(=O)NC4CCCCC4)cc3n2c1=O)c1ccc(F)cc1	i
COc1ccc(-c2ncc3c(n2)OCCN(Cc2ccccc2)C3=O)cn1	i
Clc1ccc(-c2nnn3c2nc(NCc2ccccc2)c2ccccc23)cc1	i
CC(C)CNC(=O)c1ccc2c(=O)n(C(C)C)c3nn(Cc4ccc(N5CCCC5=O)cc4)c(=O)n3c2c1	i
CC(C)Cn1c(=O)c2cc(F)ccc2n2c(SCC(=O)Nc3cccc(Cl)c3)nnc12	i
Cc1ccc(CN2CCC3(CC2)CC(c2ccccc2)C(=O)N3C)cc1F (stereo unspecified)	i
COc1ccc(C(=O)N2CCC(N3Cc4cnc(C)n4C3=O)CC2)cc1	i
Cc1cccc(Cn2nc3n(CC(C)C)c(=O)c4ccc(C(=O)NC(C)C)cc4n3c2=O)c1	i
CCCn1c(=O)c2ccc(C(=O)NCC(C)C)cc2n2c(=O)n(CC(=O)NC(C)(C)C)nc12	i
CC(=O)Nc1c2n(c3ccc(F)cc13)CC(C)(C(=O)NC1CCCCC1)N(Cc1cccs1)C2=O (stereo unspecified)	i
Cc1ncoc1C(=O)N1CCC[C@H](n2c(=O)n(C)c3cccnc32)C1	i
COc1cccc(N2C(=O)CSc3c(c4ccccc4n3C)C2C(=O)NCc2ccc(F)cc2)c1 (stereo unspecified)	i
CC1=C[C@@H](CN2CCC(O)CC2)[C@H](C(C)C)C[C@H]1Cc1nnc(-c2ccncc2)o1	i
Cc1cc2c(cc1NS(=O)(=O)c1ccc3c(c1)n(C)c(=O)n3C)n(C)c(=O)n2C	i

(listing goes on)
structure	Methyltransferases
COc1cccc([S+](=O)([O-])N2CCN(CCn3nc4n(c3=O)CCCC4)CC2)c1	i
CC(CN1C(=O)c2nc3ccccc3n2CC1(C)C(=O)NC1CCCC1)c1ccccc1 (stereo unspecified)	i
COc1cccc(CNC(=O)CCCn2ccc3cc(S(=O)(=O)N4CCCC4)ccc32)c1	i
COc1ccccc1C1(CC(=O)O)CCOC(C)(C)C1 (stereo unspecified)	i
Cc1ccc(Cl)cc1N1CCN(S(=O)(=O)c2ccc3[nH]c(=O)[nH]c3c2)CC1	i
CC[C@@H]([C@H](C)O)n1ncn(-c2ccc(N3CCN(c4ccc(OC[C@@H]5CO[C@@](Cn6cncn6)(c6ccc(F)cc6F)C5)cc4)CC3)cc2)c1=O	?
Cn1cc(C(=O)N2CCCC(c3nnnn3C)C2)cn1 (stereo unspecified)	i
CC(C)c1noc([C@@H]2C[C@@H](O)CN2Cc2cc3ccccc3o2)n1	i
COC(=O)c1ncn2c1C(=O)N(Cc1ccccc1C)C(C)(C(=O)NC1CCCC1)C2 (stereo unspecified)	i
CCOc1ccc(CNC(=O)c2cc3n(n2)CC(C)(C(=O)NC2CCCC2)N(CC)C3=O)cc1OC (stereo unspecified)	i
CC(C)NC(=O)CSc1nnc2n(CCc3ccccc3)c(=O)c3ccccc3n12	i
COc1ccc(C2=NOC3(CCN([S+](=O)([O-])c4cccc(C(F)(F)F)c4)C3)C2)cc1 (stereo unspecified)	i
CCOc1ccc(CN2C(=O)c3cc4ccc(OC)cc4n3CC2(C)C(=O)NC2CCCC2)cc1 (stereo unspecified)	i
CC1(C)O[C@@]2(C)CC[C@@H]1C[C@@H]2OC1OC(CO)C(O)C(O)C1O (stereo partly specified)	+
Clc1ccc(Nc2nc3ccccc3c3nc(C4CCCCC4)[nH]c23)cc1Cl	i
Cc1ccc(N2C(=O)c3nc4ccccc4n3CC2(C)C(=O)NC2CCCCC2C)cc1 (stereo unspecified)	i
CC(C)Cn1c(=O)c2ccccc2n2c(SCc3c(F)cccc3Cl)nnc12	i
O=C1COc2c(CCNCCN(C(=O)CCNCCc3ccc(Cl)c(Cl)c3)C3CCCCC3)ccc(O)c2N1	?
COc1cncc(Nc2cnc3ccc(-c4ccccc4OC)nn23)c1	i
Cc1ccccc1CN1C(=O)c2cc(-c3cccs3)nn2CC1(C)C(=O)NC1CCCCC1 (stereo unspecified)	i

3 compounds out of the list, arranged by molar mass, descending:
structure	Methyltransferases
O=C1COc2c(CCNCCN(C(=O)CCNCCc3ccc(Cl)c(Cl)c3)C3CCCCC3)ccc(O)c2N1	?
CC(C)NC(=O)CSc1nnc2n(CCc3ccccc3)c(=O)c3ccccc3n12	i
Clc1ccc(Nc2nc3ccccc3c3nc(C4CCCCC4)[nH]c23)cc1Cl	i

The listing continues.
structure	Methyltransferases
CC1(C(=O)NC2CCCCC2)Cn2c(ccc2-c2ccco2)C(=O)N1Cc1cccnc1 (stereo unspecified)	i
CCC1c2ccc(C)n2CCN1C(=O)Nc1ccc(C)cc1Cl (stereo unspecified)	i
CN(C)c1ccc(C(=O)NC[C@H]2O[C@@H](CO)[C@@H](O)[C@H]2N(C)CCc2ccccc2)cc1	i
CCc1ccc(CN2C(=O)c3cc(-c4ccccc4)nn3CC2(C)C(=O)NCc2ccccc2OC)cc1 (stereo unspecified)	i
Fc1cccc(-c2nnn3c2nc(NCCc2ccccc2)c2ccccc23)c1	+
COC(=O)c1cc2n(n1)CC(C)(C(=O)NC1CCCCC1)N(Cc1ccc(C)cc1)C2=O (stereo unspecified)	i
CC(=O)O[C@@H]1[C@@H](O)[C@H](O[C@H]2CC[C@]34C[C@]35CC[C@]3(C)[C@@H]([C@@]6(C)CC[C@@H](C(C)(C)O)O6)[C@@H](O)C[C@@]3(C)[C@@H]5C[C@H](O[C@@H]3O[C@H](CO)[C@@H](O)[C@H](O)[C@H]3O)[C@H]4C2(C)C)OC[C@H]1O	i
O=C(Cn1c(=O)oc2cc(S(=O)(=O)NC3CCCC3)ccc21)NCc1ccc(F)cc1	i
CC(C)CCNc1nc2c(-c3ccc(Cl)cc3)nnn2c2ccccc12	i
CN(CC[C@@H](Oc1ccc(C(F)(F)F)cc1)c1ccccc1)CC(=O)O	i
CCCn1c(=O)c2ccccc2n2c(SCC(=O)NCc3ccc(Cl)cc3)nnc12	i
Cc1ccc(C(=O)Cn2nc3n(CCc4ccccc4)c(=O)c4ccccc4n3c2=O)c(C)c1	i
C=CCn1c(=O)c2ccc(C(=O)NC(C)CC)cc2n2c(=O)n(CC(=O)NC3CCCC3)nc12 (stereo unspecified)	i
O=C(CN1CCCc2nc(-c3ccncc3)ncc2C1=O)NCc1cc(F)ccc1F	i
CCOc1ccccc1NC(=O)N1CCn2cccc2C1C (stereo unspecified)	i
COc1ccc(CCNC(=O)CCCc2nnc3n4nc(C)nc4c4ccccc4n23)cc1OC	i
O=C(NC1CCCCC1)c1ccc2c(=O)n(Cc3ccccc3)c3nn(Cc4ccccc4)c(=O)n3c2c1	i
COC(=O)CNC(=O)NCCc1ncc(C)n1C1CCCC1	i
